VACV Venus inh: vaccinia inhibition (Venus reporter); 0.46% of 330,000 active; AID 720580; Vaccinia virus Venus reporter expression, fluorescence; Potency, µM (highest dose often 36.5 µM), without a hit: at the highest dose activity change, negative = inhibition, hits mostly inhibitors; active means well fitted inhibition curve with a large enough effect; inconclusive means small, poorly fitted or top-dose-only effect; inactive means no such curve, though single readings can be large or run the other way; tested in A549 cells; further: nearly all actives have a fitted effect of over 30% in size; inactives centre near -10
Vaccinia mCherry: vaccinia inhibition (mCherry reporter); Vaccinia virus mCherry reporter infection, fluorescence; about a quarter of the inactives have no number; Potency, µM (doses to about 36.5 µM), without a hit: at the highest dose activity change, negative = inhibition, hits mostly inhibitors; 0.63% of 310,000 active; AID 720579; active = well fitted inhibition curve with a large enough effect; inconclusive = small, poorly fitted or top-dose-only effect; inactive = no such curve, though single readings can be large or run the other way; tested in A549 cells; further: nearly all actives have a fitted effect of over 35% in size; inactives centre near -10
Active calls of the source: *; i = inactive; u = inconclusive; x = no result given; & = joins results of further samples; [ ] = remark or other dose. On the % scale 0 is the no-effect control and ±100 the full control effect; potency means the concentration at half of the fitted maximal effect. This is a random part of the collection; about 0.86% have a hit in one of these screens.

SMILES | VACV Venus inh | Vaccinia mCherry
CCOC(=O)CCc1c(C)nc2c(-c3ccccc3)c(C)[nH]n2c1=O | 2% | -6%
CN1C(=O)[C@H]2[C@@H](C3CC3)N3C(=O)CN(CC4CC4)C(=O)[C@@]3(C)[C@H]2C1=O | -6% | -9%
CC(C)CCNC(=O)c1onc(CSc2ccncc2)c1C(=O)NCCC(C)C | -14% | -19%
O=C(N1CCOCC1)N1CCN(c2ccccn2)CC1 | -6% | x
COC(=O)c1ccc2c(=O)n(-c3ccc(OC)cc3)c(=S)[nH]c2c1 | -6% | -3%
O=c1nc2ccccc2c(NS(=O)(=O)c2ccc(Cl)cc2)n1-c1ccccc1 | 0% | -9%
Cc1ccc(-n2c(C)cc(C)c(C#N)c2=O)cc1C | 0% | -2%
CCOC(=O)c1ccc(N2C(=O)c3n[nH]c(-c4ccco4)c3C2c2cccc(F)c2)cc1 (stereo not given) | -26% | -28%
Cc1c(C(=O)O/N=C(\N)c2ccccn2)cccc1[N+](=O)[O-] | -5%[7.34 µM] | -11%[7.34 µM]
CC(=O)Nc1ccc(S(=O)(=O)NCC(=O)OCc2ccccc2)cc1 | -13% | 4%
CCn1c(SCC(=O)Nc2ccc3c(c2)OCO3)nc2c(c1=O)SC(C)C2 (stereo not given) | -11% | 10%
COc1ccc(C(=O)Nc2cccc(C(C)=O)c2)cc1S(=O)(=O)N1CCOCC1 | -2% | x
Cc1cc(=O)oc(C)c1C(=O)Nc1c(C)n(C)n(-c2ccccc2)c1=O | 3% | -6%
O=C(O)c1cccc(S(=O)(=O)N(Cc2ccccc2)c2ccccc2)c1 | -8% | -13%
CC(C)(C)NC(=O)CCc1ncc(C(F)(F)F)cc1Cl | -18% | -9%
O=C(N/N=C/c1ccccn1)c1cc(C2CC2)[nH]n1 | -3% | u
O=C(CSc1nnc(Nc2ccccc2F)s1)Nc1cccc(S(=O)(=O)N2CCCCC2)c1 | u | u
CCOC(=O)C1CCN(C(=O)COc2ccc(N(C)S(=O)(=O)c3cccs3)cc2)CC1 | -13% | x
COc1ccc(-c2csc(N3CCC(C(N)=O)(N4CCCCC4)CC3)n2)cc1 | -26% | u
CCCCC(CC)C(=O)Nc1ccc(C)c(O)c1 (stereo not given) | -4% | -13%
c1cc(-c2noc(CCC3CCCC3)n2)ccn1 | -20% | i
CSc1nc(C(=O)N2CCCC(Nc3ccc(C)c(C)c3)C2)cs1 (stereo not given) | -11% | -8%
CCN(CC)C(=O)C(Cc1ccccc1)N1C(=O)c2ccccc2C1=O (stereo not given) | -24% | x
COc1ccc(S(=O)(=O)NNS(=O)(=O)c2ccc(OC)c(OC)c2)cc1OC | -1% | -3%
CC(=O)c1ccc(S(=O)(=O)N(C)CCCC(=O)N(C)Cc2c(F)cccc2Cl)cc1 | -6% | i
O=c1ccc(C(F)(F)F)cn1Cc1cc(=O)n2ccsc2n1 | -14% | i
Cc1nn(C)c(C)c1S(=O)(=O)N(CC(=O)Nc1ccc2c(c1)OCO2)c1ccc(C(C)C)cc1 | -15% | i
CC(C)Cn1c(N)c(C(=O)COC(=O)C2=COCCO2)c(=O)n(C)c1=O | -7% | -15%
O=c1[nH]c(=O)n(CCC2=CCCCC2)c(O)c1C=NCCCn1ccnc1 | -11% | x
Cc1cccc(-c2nc(=S)c3c(n2Cc2ccco2)CCCC3)c1 | 2% | -11%
Cc1csc(SCC(=O)Nc2ccc3[nH]c(=O)[nH]c3c2)n1 | -1% | i
CCC(C#CCN1CCOCC1)(CC)OCCC#N | -5% | x
COc1ccc(N2C3=C(C(=O)CC(C)(C)C3)C(c3cnn(C)c3)C3=C2CC(C)(C)CC3=O)cc1 | -6% | -14%
COc1ccc(S(=O)(=O)N2CCc3ccccc32)cc1NC(C)=O | -12% | -21%
CC(C)(C)OC(=O)NCCCCCNC(=O)c1nc[nH]c1C(=O)NCC(=O)OCc1ccccc1 | -14% | i
Cc1ccc(Cl)cc1-c1cc(C(=O)NCC2CCCCC2)[nH]n1 | -9% | i
FC(F)(F)c1ccccc1Cc1c(-c2cccc(Cl)c2)nc2ccc(Br)cn12 | 4% | 1%
CCOc1ccc(C(=O)c2cn(CC(=O)Nc3cccc(OC)c3)c3cc4c(cc3c2=O)OCCO4)cc1 | -5% | -13%
c1ccc(SCCc2ccncc2)cc1 | -13% | x
CC(C)c1ccc(CC(=O)N2CCC2(C)C(=O)NS(=O)(=O)c2ccc(Cl)s2)cc1 (stereo not given) | -2% | 6%

Filtered by structure: those above containing fluorine.
SMILES | VACV Venus inh | Vaccinia mCherry
CCOC(=O)c1ccc(N2C(=O)c3n[nH]c(-c4ccco4)c3C2c2cccc(F)c2)cc1 (stereo not given) | -26% | -28%
CC(C)(C)NC(=O)CCc1ncc(C(F)(F)F)cc1Cl | -18% | -9%
O=C(CSc1nnc(Nc2ccccc2F)s1)Nc1cccc(S(=O)(=O)N2CCCCC2)c1 | u | u
CC(=O)c1ccc(S(=O)(=O)N(C)CCCC(=O)N(C)Cc2c(F)cccc2Cl)cc1 | -6% | i
O=c1ccc(C(F)(F)F)cn1Cc1cc(=O)n2ccsc2n1 | -14% | i
FC(F)(F)c1ccccc1Cc1c(-c2cccc(Cl)c2)nc2ccc(Br)cn12 | 4% | 1%

Next section.
SMILES | VACV Venus inh | Vaccinia mCherry
CCN(CC)C(=O)c1cccc(-c2csc(C(C)(NC(C)=O)c3ccccc3)n2)c1 (stereo not given) | -7% | -5%
CCc1nc(SCC(=O)Nc2ccc(F)cc2F)c2c(=O)n(C)c(=O)n(C)c2n1 | -8% | -16%
OC1(c2ccc(Cl)cc2)CCN(Cc2c[nH]c3ccccc23)CC1 | -17%&-21% | -3%&-15%
CC(C)(C)C1(CCO)C(=O)NC(=S)NC1=O | 4% | -13%
COc1ccc(C)cc1NC(=O)c1cc(S(=O)(=O)N2CCc3ccccc3C2)ccc1F | -9% | -8%
Cc1cc(Nc2ccc(F)cc2)n2c(nc3ccccc32)c1C#N | 1% | 4%
O=C1CCCN1C(=O)COc1ccccc1[N+](=O)[O-] | -10% | -23%
O=C(NCCN1C(=O)S/C(=C\c2ccc(Cl)c(Cl)c2)C1=O)c1ccc2c(c1)C(=O)N(Cc1ccncc1)C2=O | -10% | i
Cc1sc2nc(C(C)C)oc(=O)c2c1C | -10% | -13%
O=C(CSc1nc2c(c(C(F)(F)F)n1)CCc1ccccc1-2)NCc1ccccc1 | -9% | i
O=C(CSCc1cccc(Br)c1)NC1CC1 | -6% | -13%
CC(=O)Nc1cc(-c2nn(C)c(=O)c3ccccc23)ccc1N1CCOCC1 | 1% | -12%
COc1ccc(Cc2nnc(SCC(=O)Nc3cc(Cl)ccc3C)[nH]c2=O)cc1 | -12% | i
COCCNC(=O)C(C)OC(=O)c1nsc(Cl)c1Cl (stereo not given) | -7% | -9%
O=C(CN1CCN(c2ccccn2)CC1)Nc1ccc(OC(F)(F)F)cc1 | -13% | -5%
CC(CNC(=O)c1cc2ccccn2n1)c1ccccc1 (stereo not given) | 0% | -1%
O=C(Nc1cc(Cl)ccc1-n1cncn1)c1cncc(Br)c1 | -9% | -8%
COC(=O)c1ccc(COc2ccccc2/C=N/NS(=O)(=O)c2ccc(C)cc2)cc1 | u | -27%
COC(=O)c1c(N)sc2c1CCN(c1ncc(C(F)(F)F)cc1Cl)C2 | u | -15%[1.46 µM]
O=C(NC1CCCC1)C(C1CC1)n1c(C2CCCC2)nc2ccccc21 (stereo not given) | -8% | 2%
COc1ccc(C(C)(O)c2nc(/C=C/c3ccccc3)cs2)cc1 (stereo not given) | -3% | -5%
CCOC(=O)N1CCN(CC(O)COc2c(C)cccc2C)CC1 (stereo not given) | -5% | -6%
O=C(CSc1ccc2c(c1)OCCO2)Nc1cccnc1Cl | -19% | -4%
O=C(c1ccco1)N1CCN(C23CC4CC(CC(C4)C2)C3)CC1 | -12% | i
COc1cccc(CCC(=O)Nc2cc3c(cc2C(=O)O)OCCCO3)c1OC | -7% | i
CCc1ccc(NC(=O)CSc2nc3c([nH]c4ccccc43)c(=O)n2-c2ccc(C)cc2)cc1 | -12% | -10%
CS(=O)(=O)c1ccc(C(=O)NCC2(N3CCCCC3)CCCCC2)cc1 | 2% | -18%
Cc1ccc(NC(=O)c2sc3nc(C)nc(N4CCN(c5ccccn5)CC4)c3c2C)c(C)c1 | -1% | -3%
CSc1ccc(-c2nc(CSCC(=O)NCCCN3CCOCC3)c(C)o2)cc1 | -11% | -15%
O=[N+]([O-])c1ccc(O)c(C=NN2CCCCC2)c1 | -3% | i
COC(=O)NC(=S)Nc1ccc(Oc2ccc(Cl)cc2Cl)c(Cl)c1 | u | -17%
O=S(=O)(c1ccc2ccccc2c1)n1nc(-c2ccco2)nc1NCc1cccc(Cl)c1 | -8% | 3%
CCCCCCCCNCCS(=O)(=O)NCc1ccccc1 | u | -16%
CCc1ccc(CNC(=O)c2cnc(N3CCCCC3)c3ccccc23)cc1 | -7% | 1%
Cc1cccc(NC(=O)CSc2cn(CC(=O)N3CCOCC3)c3ccccc23)c1 | -12% | -11%
CCCCN1C(=O)C(CC(=O)NC2CCCC2)CC(C(=O)N(CC)CC)=C1C (stereo not given) | -7% | i
CCOC(=O)c1c(C)[nH]c(C(=O)N2CCN(CC)CC2)c1C | -4% | -16%
O=C(Cc1cccs1)N=Nc1c(O)[nH]c2ccc(Br)cc12 | -22% | u
CN1CCC(N(C)C(=O)c2ccc(Cl)c(S(=O)(=O)N3CCOCC3)c2)CC1 | -12% | i
Cc1ccccc1C(=O)c1cccn1CC(=O)NC(C)c1ccc2c(c1)OCCO2 (stereo not given) | -12% | -24%
O=C1CCCC2=C1C(c1ccncc1)n1c(nc3ccccc31)N2 (stereo not given) | 6% | -9%
O=C(O)C1CCN(S(=O)(=O)c2cccc3cccnc23)CC1 | -4% | i
C=CCn1c(=NC(=O)c2ccco2)sc2cc(C(=O)OC)ccc21 | -9% | i
Clc1ccc(C[n+]2cc(-c3ccccc3)n3c2CCC3)cc1Cl | -10% | i
O=[N+]([O-])c1ccc(N=Cc2ccc(Br)c([N+](=O)[O-])c2)cc1 | -4% | i
CC(C)CCC(C)N=Cc1c(O)n(Cc2ccccc2)c(=O)c2ccccc12 (stereo not given) | -12% | x
COCCn1cnnc1SCC(=O)Nc1cc(OC)c([N+](=O)[O-])cc1C | -1% | -14%
Cc1ccc2oc(=O)c3cc(C(=O)NCCCN4CC(C)CC(C)C4)sc3c2c1 (stereo not given) | -12% | i
Cc1nc(N2CCC3(CC2)OCCO3)c2nnn(Cc3ccccc3F)c2n1 | -14% | i
CCc1ccc2occ(CC(=O)Nc3sc4c(c3C(=O)OC)CCC4)c2c1 | -4% | -6%

(more compounds)
SMILES | VACV Venus inh | Vaccinia mCherry
Cc1ccc(NC(=O)CSc2cc(=O)n(C)c3ccc(Cl)cc23)c(Br)c1 | -12% | -4%
CCC(C)[C@@H](C(=O)NCC1CCC(C(=O)O)CC1)n1nnc2ccccc2c1=O (stereo not given in full) | -4% | -5%
CCCCCCCC(=O)Oc1ccc(C(=O)Nc2cc(C)on2)cc1 | -14% | -21%
COc1ccc([N+](=O)[O-])cc1C(=O)Nc1ccc(OCC(=O)N2CCOCC2)cc1 | -10% | i
CCc1ccc(NC(=S)N(Cc2cccnc2)Cc2ccco2)cc1 | -25% | i
CNS(=O)(=O)/C=C/c1ccccc1 | -8% | -13%
Cc1ccc(CNC(=O)C2CCCN(Cc3nc(-c4cccc(C)c4)oc3C)C2)cc1 (stereo not given) | -27% | -9%
Cc1ccccc1C(=O)Nc1ccc(S(=O)(=O)N2CCCC2)cc1 | -19% | -10%
O=C(NCc1ccc(F)cc1)NC(=O)c1ccc(Cl)cc1 | -19% | i
Cc1sc2nc(C3CC3)nc(N3CCN(C(=O)c4ccc(Cl)cc4)CC3)c2c1C | -13% | -25%
COc1cccc(Cc2nc3ccccc3nc2SCC(=O)NCc2ccc(C)cc2)c1 | -17% | -27%
CCc1ccc(C(=O)COC(=O)C2CCN(c3ccc(C(F)(F)F)cn3)CC2)cc1 | -7% | i
COCCCNC(=O)C1CCC(Cn2c(=O)c3sccc3n(Cc3ccc(F)cc3)c2=O)CC1 (stereo not given) | -27% | u
COc1cccc(CNC(=O)CN2C(=O)COc3ccc(S(=O)(=O)N4CCCC4)cc32)c1 | -12% | i
COc1ccc(-c2csc(NC(=S)NC(=O)/C=C/c3ccco3)n2)cc1Br | u | -3%
Cc1ccccc1NC(=O)CSc1nccn1C | 11% | 14%
C=CCn1c(=N)n(CC(=O)c2ccccc2)c2ccccc21 | -12% | -4%
COc1ccc2[nH]c(=O)c(CN(C(=O)c3cccnc3)c3ccc(C)c(C)c3)cc2c1 | -13% | -10%
O=C(c1ccc(F)cc1Cl)N1CCN(CCc2ccccc2)CC1 | -10% | i
O=C(Nc1ccc(-c2cn3cccnc3n2)cc1)c1ccccc1F | u | -25%
O=C1c2ccccc2C(=O)N1CCCn1c(=O)oc2ccccc21 | -5% | -6%
CCOc1ccc(C2NC(=O)c3c(COC)cc(C)nc3N2Cc2ccccc2)cc1OC (stereo not given) | -7% | -6%

Entries of single compounds from above. Order of screens: VACV Venus inh | Vaccinia mCherry
COc1ccc(-c2csc(NC(=S)NC(=O)/C=C/c3ccco3)n2)cc1Br in the list: u | -3%
O=C(c1ccc(F)cc1Cl)N1CCN(CCc2ccccc2)CC1 in the list: -10% | i
O=C1c2ccccc2C(=O)N1CCCn1c(=O)oc2ccccc21 in the list: -5% | -6%
CCc1ccc(C(=O)COC(=O)C2CCN(c3ccc(C(F)(F)F)cn3)CC2)cc1 in the list: -7% | i
COc1cccc(Cc2nc3ccccc3nc2SCC(=O)NCc2ccc(C)cc2)c1 in the list: -17% | -27%
